KCNQ2 pot – KCNQ2 (rat) channel potentiation | O88943 | CHO-K1 KCNQ2, FluxOR thallium flux fluorescence; active compounds read high | B-score at 10 µM | 0.54% of 310,000 active | AID 2239;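 active = fluorescence ratio B-score at least 3 SD of library B-scores, with initial fluorescence B-score within 3 SD, cut at about 5.3 in these data; same plate scores as AID 2156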;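 note: B-score of peak minus minimum over baseline fluorescence ratio after K+ and Tl+ stimulus; positive B-score means potentiation of KCNQ2 with more thallium influx and brighter signal; only the inactives scoring about 0 or higher are listed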
Target sequence (O88943 whole entry, looked up): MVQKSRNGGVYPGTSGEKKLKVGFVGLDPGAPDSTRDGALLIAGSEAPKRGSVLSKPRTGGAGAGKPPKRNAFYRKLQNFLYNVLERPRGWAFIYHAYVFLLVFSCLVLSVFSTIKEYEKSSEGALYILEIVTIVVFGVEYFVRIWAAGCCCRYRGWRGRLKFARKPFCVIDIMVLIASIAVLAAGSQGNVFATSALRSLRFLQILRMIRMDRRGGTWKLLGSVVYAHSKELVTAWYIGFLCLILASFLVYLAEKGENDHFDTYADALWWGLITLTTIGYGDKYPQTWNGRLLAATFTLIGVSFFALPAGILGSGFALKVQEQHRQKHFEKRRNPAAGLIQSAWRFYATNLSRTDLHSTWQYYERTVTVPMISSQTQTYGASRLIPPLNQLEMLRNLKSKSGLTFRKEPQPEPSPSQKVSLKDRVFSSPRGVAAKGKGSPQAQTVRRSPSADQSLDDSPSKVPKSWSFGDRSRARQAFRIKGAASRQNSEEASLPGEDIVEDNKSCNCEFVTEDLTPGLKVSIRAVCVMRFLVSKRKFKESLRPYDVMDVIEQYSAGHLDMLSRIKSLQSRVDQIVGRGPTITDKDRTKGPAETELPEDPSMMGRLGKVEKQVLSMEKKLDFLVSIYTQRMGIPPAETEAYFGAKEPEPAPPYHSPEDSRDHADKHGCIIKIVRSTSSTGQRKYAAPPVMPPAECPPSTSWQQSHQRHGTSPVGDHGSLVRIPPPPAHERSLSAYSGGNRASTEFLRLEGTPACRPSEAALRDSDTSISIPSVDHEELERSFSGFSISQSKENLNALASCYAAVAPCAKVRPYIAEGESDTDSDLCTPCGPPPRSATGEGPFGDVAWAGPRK
KCNQ2 pot baseline – second read-out of KCNQ2 pot, no call of its own (marks repeat the call); B-score; compound at 10 µM; measured here: initial fluorescence intensity artifact check;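 brightness before thallium and not channel activity; 0 = typical well and far values either way flag optical interference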
An asterisk follows results filed as active. These rows are one share of the data, so the mix of outcomes need not match the whole.

#	SMILES	KCNQ2 pot	KCNQ2 pot baseline
1	COCCn1c(SCC(=O)NC2CCCCC2C)nnc1-c1ccncc1 (centres undefined)	1.8	-0.6
2	CC(=O)N1c2ccc(S(=O)(=O)N3CCC(C(=O)Nc4ncccc4C)CC3)cc2CC1C (centres undefined)	0.24	0.34
3	CCOc1ccc(NS(=O)(=O)c2ccc(C(=O)N3CCCC(C)C3)cc2)cc1 (centres undefined)	1.5	0.16
4	CC(OC(=O)C1CCC(=O)N1)C(=O)Nc1cc(Cl)cc(Cl)c1 (centres undefined)	1.5	0.28
5	COc1cc(C(=O)NCCC(=O)NC2CCCCCCC2)cc(OC)c1OC	2.2	-0.83
6	CCOc1ccc(-n2c(Cc3cc(=O)[nH]c(=O)[nH]3)nnc2SCC(N)=O)cc1	0.59	0.02
7	CC(=C/C(=O)O)/C(=C/c1ccccc1)C(=O)O	0.21	-0.63
8	CC(=O)Nc1ccc(NC(=O)C23CC4CC(C2)CC(n2cnc(Br)n2)(C4)C3)cc1	1.2	0.22
9	CCOc1cccc(CNn2cnnc2)c1OCc1ccccc1	1.6	-0.35
10	CCC(=O)N1CCN(c2ccc(NC(=O)c3ccco3)cc2Cl)CC1	1.5	-2.1
11	O=C(CSc1nnc(CNC(=O)c2c(F)cccc2F)o1)c1ccccc1	0.62	-0.77
12	Cc1ccc(/C(O)=C2\C(=O)C(=O)N(CC(C)O)C2c2ccc(N(C)C)cc2)cc1 (centres undefined)	0.74	-1
13	Brc1cccc(-c2nnc3n2CCCCC3)c1	0.14	-0.69
14	O=C(Nc1ccc2c(c1)OCO2)C1CC(c2ccc(F)cc2)=NO1 (centres undefined)	0.41	-0.42
15	O=C(COc1ccc([N+](=O)[O-])cc1)N/N=C/c1cc([N+](=O)[O-])ccc1N1CCOCC1	0.38	-0.29

Values by screen from the list:
KCNQ2 pot for entries 5–11: 2.2, 0.59, 0.21, 1.2, 1.6, 1.5, 0.62

(list continues)
#	SMILES	KCNQ2 pot	KCNQ2 pot baseline
16	Cn1nccc1C(=O)N/N=C/c1cccnc1	1.8	0.14
17	Cn1c(CN2CCCC2)nc2cc(NS(=O)(=O)c3ccc(Cl)cc3)ccc21	0.43	0.34
18	COc1ccc(Br)cc1/C=N/NC(=O)c1cc(Br)ccc1O	0.7	0.39
19	CCc1ccc(C(C)NC(=O)c2ccncc2)cc1 (centres undefined)	0.54	0.69
20	O=c1c2ccccc2[nH]c(=S)n1CCN1CCCCC1	0.03	-0.42
21	Cc1ccn2c(-c3n[nH]c(=S)n3Cc3ccccc3)c(C)nc2c1	1.5	-1.1
22	O=C(O)c1cc(/C=C/c2ccc(N3CCOCC3)c([N+](=O)[O-])c2)nc2ccccc12	0.1	0.54
23	Cc1ccc(CN(C)CC(=O)NC(C)c2ccccc2)cc1 (centres undefined)	1.1	-2.2
24	O=C(Cn1nnc(-c2cccc(C(F)(F)F)c2)n1)NC(=O)NCc1ccco1	0.02	-0.15
25	O=C(NCCSc1c[nH]c2ccccc12)c1ccc2c(c1)OCO2	0.13	1.4
26	Fc1cccc(Cl)c1CSc1ccc2nnc(-c3ccccn3)n2n1	0.59	-0.81
27	CCn1c2ccccc2c2nnc(SCCN3CCCCC3)nc21	2	-0.17
28	COc1ccc(-c2nc(CN3CCN(C(=O)c4ccco4)CC3)c(C)o2)c(F)c1	0.26	0.24
29	CCOC(CCNC(=O)c1cn(-c2cccc(C)n2)cn1)OCC	1.6	0.15
30	CN(C(=O)CSc1ncccc1C(=O)O)c1ccccc1	0.59	0.21

Additional results:
#	SMILES	KCNQ2 pot	KCNQ2 pot baseline
31	COC(=O)c1cc(C(=O)OC)cc(S(=O)(=O)Nc2ccc(Cl)c(N)c2)c1	0.94	-1.7
32	COc1ccccc1C(=O)N/N=C(\C)CC(=O)Nc1ccccc1NC(C)=O	2.2	-0.83
33	Cc1cc(S(=O)(=O)N2CCN(c3ccc(F)cc3)CC2)ccc1-n1cnnn1	0.65	2.1
34	COc1ccc(NC(=O)C(c2ccc(OC)cc2)N(C)C(=O)CC2NC(=O)NC2=O)cc1 (centres undefined)	0.13	0.12
35	Nc1c(-c2ccccc2)cnn1C1CCS(=O)(=O)C1 (centres undefined)	0.55	1.4
36	CCCCCc1nnc(NC(=O)C2CCCO2)s1 (centres undefined)	1.2	1.5
37	COc1cc(C(=O)OCC(=O)Nc2cc(C)on2)c([N+](=O)[O-])cc1OC	1.6	1.3
38	Cc1cc(Br)c(S(=O)(=O)n2nnc3ccccc32)cc1C	1.1	-0.1
39	COc1cccc(-c2cc(C(=O)NCc3cccs3)no2)c1	1.8	0.89
40	O=C(CCC1CCCN(C(=O)C2(c3ccccc3)CC2)C1)N1CCN(c2ccccn2)CC1 (centres undefined)	0.38	1.2
41	COc1cc(C)c(Br)cc1S(=O)(=O)N1CCCC1	0.76	-1.2
42	COc1ccc(S(=O)(=O)N2CCC(NC(=O)Nc3ccc(C)cc3)CC2)cc1	0.44	0.85
43	COc1ccc(/C=N/N(C)C2=NS(=O)(=O)c3ccccc32)cc1OC	1.7	-0.87
44	Cc1sc2c(c1C)CN(Cc1ccncc1)CN2C(=O)c1ccco1	0.75	-0.13
45	CC(SCCc1ccccn1)C(=O)O (centres undefined)	0.71	0.35

(continued)
#	SMILES	KCNQ2 pot	KCNQ2 pot baseline
46	CC(C)NC(=O)C(c1ccc(F)cc1)N(Cc1ccco1)C(=O)CCC(=O)Nc1ccccn1 (centres undefined)	0.52	0.35
47	COc1ccc(S(=O)(=O)N2CCCCC2)cc1NC(=O)Cn1c(=O)cnc2ccccc21	1.2	0.11
48	ON1C(c2ccc(Cl)cc2Cl)N(O)[C@H]2CCCC[C@H]21 (some centres undefined)	1.3	-0.3
49	Cc1ccc(NC(=O)C2CCN(S(=O)(=O)c3c(C)noc3/C=C/N(C)C)CC2)cc1	2	-0.04
50	COc1ccc(S(=O)(=O)N2CCC(C(=O)N3CCN(c4ccccc4OC)CC3)CC2)cc1	0.01	-0.4
51	C=CCN(C(=O)c1csnn1)C(C(=O)NC1CCCCC1)c1ccccc1 (centres undefined)	1.4	-0.8
52	CCn1cc(C(=O)NCc2ccccc2OC)c(=O)c2ccc(C)nc21	0.12	0.16
53	Cc1ccc(OCc2ccc(C(=O)NCC3CCCO3)cc2)cc1 (centres undefined)	1.2	-0.82
54	Cc1ccc(C(=O)OCC(=O)Nc2ccc(N(C)C)cc2)cc1NC(=O)c1ccco1	1	1.9
55	COc1ccc(NC(=O)c2cc(S(=O)(=O)N3CCOCC3)ccc2N2CCOCC2)cc1	2.5	-0.05
56	c1ccc(Oc2cccc(NC3=NCCC3)c2)cc1	1.5	1.6
57	COc1ccc2[nH]c(=O)c(CN(C(=O)C3CCCO3)c3ccc(C)cc3)cc2c1 (centres undefined)	1.1	-0.04
58	Fc1ccc(-c2nnc3sc(C4COc5ccccc5O4)nn23)cc1 (centres undefined)	0.02	-1
59	Cc1cccc(-n2ncc3c(Nc4ccc(F)cc4)ncnc32)c1	1.2	0.63
60	CC(C)C1N(C(N)=S)N=CC1(C)C (centres undefined)	0.79	0.07

Numbers 57–60 of the list above:
#	SMILES	KCNQ2 pot	KCNQ2 pot baseline
57	COc1ccc2[nH]c(=O)c(CN(C(=O)C3CCCO3)c3ccc(C)cc3)cc2c1 (centres undefined)	1.1	-0.04
58	Fc1ccc(-c2nnc3sc(C4COc5ccccc5O4)nn23)cc1 (centres undefined)	0.02	-1
59	Cc1cccc(-n2ncc3c(Nc4ccc(F)cc4)ncnc32)c1	1.2	0.63
60	CC(C)C1N(C(N)=S)N=CC1(C)C (centres undefined)	0.79	0.07

The list continues:
#	SMILES	KCNQ2 pot	KCNQ2 pot baseline
61	O=C(Nc1ccc(C(=O)O)cc1)/C(=C\c1ccc2c(c1)OCO2)NC(=O)c1ccc(Br)o1	0.34	-0.03
62	Cc1ccccc1CS(=O)(=O)c1ncc(Cl)c(C(=O)Nc2ccc(F)cc2)n1	0.34	-0.01
63	CCc1nnc(NS(=O)(=O)c2ccc(NC(=O)c3ccc(Cl)cc3)cc2)s1	3.6	-1.1
64	N=C1/C(=C/c2ccc(Br)o2)C(=O)N=C2SC(CC(=O)N3CCCC3)=NN12	0.74	-0.09
65	O=C(c1ccc(OC2CCN(CCc3ccccc3)CC2)cc1)N1CCCC1	1.2	0.26
66	CC1CC(C)CN(C(=O)CCNS(=O)(=O)c2ccc3c(c2)CCC(=O)N3)C1 (centres undefined)	1.8	0.46
67	Nc1nc(Oc2ccc(F)cc2)c(Br)c(=O)[nH]1	0.37	1.1
68	Cc1cc(-c2nc3ncccc3o2)ccc1N	0.94	-0.6
69	O=C(CN1CCN(c2ccc(F)cc2)CC1)OCc1ccccc1	0.82	-0.1
70	Cc1ccc(OCCCN2CCOCC2)cc1	0.58	-0.07
71	Cc1cc(C)cc(C(=O)Nc2ccc(N3CCN(S(C)(=O)=O)CC3)cc2)c1	1.1	-1.2
72	CC(=O)Nc1ccc(S(=O)(=O)N(C)CC(=O)OCC(=O)N2CCCCCC2)cc1	1.1	-3.5
73	COc1ccc(NC(=O)c2onc(C)c2Cl)cc1OC	0.46	-0.11
74	CCC(C(=O)N1CCOCC1)n1nc(C)c2c(C)n(-c3ccccc3)nc2c1=O (centres undefined)	0.47	4.1
75	O=C(NCCSc1ccc(Br)cc1)c1ccc2nc[nH]c2c1	3.3	-2.4

Next section
#	SMILES	KCNQ2 pot	KCNQ2 pot baseline
76	CCN(CC)S(=O)(=O)c1ccc(Cl)c(C(=O)Nc2nnc(C)s2)c1	1.2	-1.2
77	O=C(c1cccc(OC2CCN(Cc3cccc(OCCO)c3)CC2)c1)N1CCCC1	1.3	-0.01
78	CC(=O)N1N=C(c2cccs2)CC1c1ccc(Br)cc1 (centres undefined)	1.3	0.53
79	CCOc1ccc(NC(=O)N2CCC(c3nc4ccccc4o3)CC2)cc1	1.4	-1.5
80	On1nnc2ccc(C(F)(F)F)cc21	0.7	0.14
81	CCn1cnc2sc(C(=O)O)c(C)c2c1=O	0.04	-0.01
82	COc1ccc(CCn2c(=N)c(C(=O)NCC3CCCO3)cc3c(=O)n4cccc(C)c4nc32)cc1OC (centres undefined)	1.8	-0.01
83	CC(=O)Nc1ccc(NC(=O)C(C)Sc2n[nH]c(-c3ccc(C)cc3)n2)cc1 (centres undefined)	0.18	2.5
84	O=C(NCCCN1CCCC1=O)c1cccc(S(=O)(=O)N2CCN(c3ccccc3)CC2)c1	1.2	0.19
85	COc1ccc(S(=O)(=O)N(CC(=O)NCCSc2ccccn2)c2ccccc2)cc1	1.2	-0.09
86	Cc1ccc(NC(=O)CSc2nnc(Cc3csc(C)n3)o2)c(C)c1	0.29	0.85
87	COCCN(C(=O)CCC(=O)Nc1cc(C)on1)C(C(=O)NC(C)(C)C)c1ccccc1Cl (centres undefined)	1	-0.52
88	COc1ccc(NS(=O)(=O)c2ccc3oc(=O)ccc3c2)cc1	0.45	-1.7
89	Cc1cc2oc(=O)c(CC(=O)NCCCO)c(C)c2c2occ(C(C)(C)C)c12	2.5	0.34
90	O=C(Nc1ccccc1)N(CCc1nc2ccccc2[nH]1)C1CCCC1	0.32	-0.13

Other compounds follow:
#	SMILES	KCNQ2 pot	KCNQ2 pot baseline
91	COc1cc(C)nc(N2CCCC(C(=O)Nc3cccc(Cl)c3Cl)C2)n1 (centres undefined)	0.7	-0.01
92	Cc1onc(-c2ccccc2Cl)c1C(=O)Nc1ccccc1N1CCOCC1	2.9	0.79
93	O=C(NCCCN1CCCC1=O)c1ccc(OC(F)(F)F)cc1	0.46	0.31
94	COCCCn1cnc2c(c1=O)c1nc3ccccc3nc1n2CCc1ccccc1	0.58	-1.6
95	Cc1cc(C)c(Cn2c3ccccc3c3cnn(CC(=O)NCc4ccccn4)c(=O)c32)c(C)c1	14*	1.4*
96	COc1ccc(NC(=S)N2CCCN(Cc3cc(C)ccc3C)C2)cc1	0.27	-0.38
97	CC(C)CCSc1nc(N)c(C#N)cc1C#N	0.3	1.6
98	Cc1ccc(Cn2c(C3CCCN3c3nc(C)cs3)nc3cc(C(=O)NCCCO)ccc32)cc1 (centres undefined)	0.28	-0.14
99	CC(C)[C@H]1C=C(C(=O)O)O[C@@H](OCc2ccc(CO)cc2)C1	1	-2.4
100	CCCCc1nc(Cl)c(C#N)c2c1CCC2	0.68	-0.38
101	COc1cc(/C=N/Nc2ccc(Cl)nn2)cc(OC)c1O	1.3	0.46
102	CC(C)CCNC(=O)COc1ccc(C(=O)c2ccccc2)cc1	1.8	0.17
103	O=S(=O)(c1ccc(Cl)cc1)N1CCN2CCCC2C1 (centres undefined)	0.47	-0.39
104	COc1ccc(C(=O)Nc2c(C)cc(C)cc2C)cc1OC	0.51	2.9
105	O=C(/C=C/c1ccccc1)NC(=S)Nc1ccc2c3c(cccc13)CC2	0.39	-0.05

Next section
#	SMILES	KCNQ2 pot	KCNQ2 pot baseline
106	Cc1ccc(OCCCC(=O)NNC(=O)c2ccncc2)cc1	0.3	0.75
107	O=C(NCCOc1ccc2ccccc2c1)c1cncc(Br)c1	0.07	-2.3
108	NC(=O)c1c(NC(=O)Cn2cnc([N+](=O)[O-])n2)sc2c1CCCC2	2.6	1.2
109	Oc1cccc(Nc2nc(-c3ccccc3Cl)nc3ccccc23)c1	0.85	1
110	Cc1cc(C)c2oc(=O)cc(CN3CCCCC3)c2c1	0.03	0.06
111	CCOC(=O)C1=C(C)N(CCCC(=O)O)C(=O)NC1c1ccc([N+](=O)[O-])cc1 (centres undefined)	0.37	0.9
112	COc1cc(OC)c(S(=O)(=O)Nc2ccc(C)cn2)cc1NC(C)=O	0.06	0.16
113	O=C(OCC(=O)N1CCCC1)c1ccc(Cl)c([N+](=O)[O-])c1	0.18	-0.47
114	CC(C)(Oc1cccc2ccccc12)C(=O)O	1.4	-0.11
115	Cc1cc(OCC(=O)NC2CCCCC2)ccc1Cl	2.8	0.05
116	CC(=O)Nc1ccc(NC(=O)c2ccc(COc3ccc4c(C)cc(=O)oc4c3)cc2)cc1	0.29	0.58
117	CC(C)CC(=O)Nc1ccc(C(=O)Nc2cccc(O)c2)cc1	1.9	-1.2

Assay outcomes (PubChem BioAssay)
